GIV-Gai inh – GIV-Galpha-i interaction inhibition; Galpha-i3/FITC-GIV peptide fluorescence polarization, 90 min; stronger effect = lower value; scaled: aluminum fluoride 0%, vehicle 100%; percent of control (FP), % (concentration not given with the values); 210,000 tested, 0.42% active; AID 1224905; P08753;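 active = replicate mean at 85% of control or lower, very high polarization wells dropped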;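 note: wells of about 15 µL received 100 nL stock; the first replicate is given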
Target sequence (P08753 whole entry, looked up): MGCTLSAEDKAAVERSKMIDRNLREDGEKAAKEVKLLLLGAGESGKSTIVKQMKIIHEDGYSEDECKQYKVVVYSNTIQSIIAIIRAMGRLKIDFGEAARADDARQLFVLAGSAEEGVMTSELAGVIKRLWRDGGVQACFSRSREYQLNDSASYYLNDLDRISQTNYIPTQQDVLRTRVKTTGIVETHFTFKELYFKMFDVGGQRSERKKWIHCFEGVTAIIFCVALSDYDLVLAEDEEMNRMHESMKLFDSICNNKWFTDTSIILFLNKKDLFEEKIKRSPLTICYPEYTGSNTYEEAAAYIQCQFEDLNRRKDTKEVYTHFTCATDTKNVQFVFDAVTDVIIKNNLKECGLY
HCMV UL50-53 inh – disrupts HCMV UL50-UL53 complex binding; HTRF UL50-UL53 interaction, normalized percent inhibition; inhibition, % (concentration not given with the values); 190,000 tested, 0.15% active;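 active = both replicates at 50% or more, plus weaker picks with an unusually low signal ratio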;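 note: stock transfer was 100 nL into about 20 µL; 0% = negative control wells and 100% = wells with untagged competitor protein; inactives centre near -12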
Sa growth inh – blocks Staphylococcus aureus growth; S. aureus RN4220 growth, OD600, 20 h, 42 °C; stronger effect = lower value; relative growth, % (test concentration not listed); 170,000 tested, 0.53% active; AID 720641;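 active = growth at 42 °C up to 50% and 20 or more points under that at 30 °C, or under 10% at both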;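 note: 300 nL library stock went into each well; scaled to the means of positive and negative controls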
Sa growth inh second temp – second read-out of Sa growth inh, no call of its own (marks repeat the call); relative growth, %; measured here: growth at 30 °C;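 optical density after 20 h as mean of two plates; 100% = untreated growth and lower means inhibition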
Active calls of the source: *; . = not tested or not shown; & = joins results of further samples.

Keys – A = GIV-Gai inh; B = HCMV UL50-53 inh; C = Sa growth inh; D = Sa growth inh second temp
1: CCCCOc1ccc(C2SCC(=O)Nc3n[nH]c(C)c32)cc1OC (centres undefined)
  A: 94 | B: -7 | C: . | D: .
2: C[N+]1(CCCl)CC[N+](C)(CCCl)CC1 (centres undefined)
  A: . | B: 3 | C: 84 | D: 97
3: CCc1nc2ccccc2c(=O)n1-c1ccccc1Cl
  A: . | B: 5 | C: 119 | D: 85
4: Cc1nnc(-c2ccccc2)o1
  A: . | B: -3 | C: 106 | D: 80
5: O=C(Cc1csc2nc(-c3ccc(Cl)cc3)cn12)N1CCN(Cc2ccccc2)CC1
  A: 99 | B: -14 | C: . | D: .
6: COc1ccc(Br)cc1CN1CCN(C(=O)Cc2ccccc2)CC1
  A: 112 | B: -15 | C: 107 | D: 92
7: NC(N)=NC(N)=Nc1ccc(Cl)cc1
  A: 100 | B: -13 | C: 112 | D: 91
8: COC(=O)[C@@H](N)CCCN=C(N)N[N+](=O)[O-]
  A: 95 | B: -3&-20&-20&43 | C: . | D: .
9: O=C1CSC(c2ccccc2)c2c(n(C3CCCC3)[nH]c2=O)N1 (centres undefined)
  A: 97&97 | B: -8&-14 | C: 110 | D: 89
10: CCCCOC(=O)c1cc(-c2ccc(C=C3C(=O)NC(=O)NC3=O)o2)ccc1Cl
  A: 104 | B: -20 | C: . | D: .

Given with bars between the fields: 2 of the compounds above.
no. | Compound | GIV-Gai inh | HCMV UL50-53 inh | Sa growth inh | Sa growth inh second temp
10 | CCCCOC(=O)c1cc(-c2ccc(C=C3C(=O)NC(=O)NC3=O)o2)ccc1Cl | 104 | -20 | . | .
7 | NC(N)=NC(N)=Nc1ccc(Cl)cc1 | 100 | -13 | 112 | 91

(continued)
Keys – A = GIV-Gai inh; B = HCMV UL50-53 inh; C = Sa growth inh; D = Sa growth inh second temp
11: CCOP(=S)(OCC)C(O)c1ccccc1 (centres undefined)
  A: 99 | B: . | C: 95 | D: 90
12: O=P1(Nc2ccc(F)cc2)COc2ccccc2OC1
  A: 100 | B: . | C: 100 | D: 85
13: COc1cc2c(cc1OC)CNCC2
  A: . | B: -10 | C: 93 | D: 91
14: C[N+](C)(C)CCOC(=O)c1ccccc1
  A: . | B: 0 | C: 103 | D: 111
15: COc1ccc(C2=NCC(=O)N(C(C)C(=O)Nc3ccc(F)cc3)c3sc4c(c32)CCCC4)cc1 (centres undefined)
  A: 104 | B: -29 | C: . | D: .
16: CN(C)C(=O)Oc1cc(=O)oc2ccccc12
  A: 108 | B: -4 | C: 105 | D: 99
17: Cc1ccc(NC2=NCCS2)cc1C
  A: 100 | B: -1 | C: 108 | D: 99

Reformatted in markdown: part of the list above
| # | SMILES | GIV-Gai inh | HCMV UL50-53 inh | Sa growth inh | Sa growth inh second temp |
| --- | --- | --- | --- | --- | --- |
| 17 | Cc1ccc(NC2=NCCS2)cc1C | 100 | -1 | 108 | 99 |
| 15 | COc1ccc(C2=NCC(=O)N(C(C)C(=O)Nc3ccc(F)cc3)c3sc4c(c32)CCCC4)cc1 (centres undefined) | 104 | -29 | . | . |
| 12 | O=P1(Nc2ccc(F)cc2)COc2ccccc2OC1 | 100 | . | 100 | 85 |
| 11 | CCOP(=S)(OCC)C(O)c1ccccc1 (centres undefined) | 99 | . | 95 | 90 |

These rows are one share of the data; count on the stated rates, not on these rows.
